CtBP-E1A inh – qHTS Assay for Inhibitors of the CtBP/E1A Interaction. CtBP / adenovirus E1A interaction (AlphaScreen). AlphaScreen GST-E1A/His-CtBP binding, 1536-well; active compounds read low; control for the full effect not named in the record. activity change, % (test concentration not listed). 0.49% of 340,000 active; in the data active means activity change below about -65%; inconclusive means about -30% to -65%; inactive means above about -30%; further: on the % scale 0 is the no-effect control and ±100 the full control effect
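Protein mix (5X: 125 nM each GST-E1A, His-CtBP) was incubated with pinned compound 2 h at 37 deg C in dark, in 50 mM Tris pH 8.0 buffer with 300 mM NaCl. Glutathione donor and nickel acceptor beads followed; AlphaScreen signal read after 1 h.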
D2 ag – Beta-Arrestin HTS for Positive Allosteric Modulators of the Human D2 Dopamine Receptor: Agonists | DiscoveRx PathHunter D2 beta-arrestin, luminescence, 90 min; 100% = 57 uM dopamine signal | D(2) dopamine receptor (Homo sapiens), P14416 | activation, % (concentration not given with the values) | 0.084% of 360,000 active; in the data active = activation above about 40%; inconclusive = about 15% to 40%; inactive = below about 15%; further: compound concentration not given in the record; the text of the record calls up to 30% inactive
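Agonist mode: compounds alone added to overnight-plated D2 PathHunter cells for 90 min at 37 C, with 57 uM final dopamine (EC100) defining full response. Beta-arrestin recruitment detected by chemiluminescent reagent, read after 1 h at ambient temperature.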
TRPML1 ag – qHTS for Agonists of the Human Mucolipin Transient Receptor Potential 1 (TRPML1); TRPML1-expressing cells, Ca2+ dye fluorescence, FDSS; host cell line not named in the record; reference of the full effect not given here; activation, % (no concentration beside the values); 0.12% of 410,000 active; in the data active = activation above about 50%; inconclusive = about 30% to 50%; inactive = below about 30%; further: 0% is about no effect; the text of the record puts the active cut at 80%
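TRPML1-DL cells, Tet-induced overnight (~16 h, 37 degrees C), loaded 45-90 min at room temperature with Ca8 no-wash calcium dye plus quencher. FDSS fluorescence: 10 s baseline, compound pin-transfer, 110 s agonist read, then EC80 54-4 (4uM final) and 110 s antagonist read.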
PINK1 modulator – A Quantitative High throughput Screen to Identify Chemical Modulators of PINK1 Expression. AID 624263, 2012. 0.2% of 410,000 active. Potency, µM (top dose mostly 76.6 µM), for inactives: at the highest dose activation (PINK1 increase), actives largely listed as activators. PINK1 immunofluorescence, high-content cytometry, 24 h; active = well fitted activation curve with a large enough effect; inconclusive = small, poorly fitted or top-dose-only effect; inactive = flat fitted curve, though single readings scatter; cell line not stated here;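 further: potency means the concentration at half of the fitted maximal effect; % of control where 0% means no effect; nearly all actives have a fitted effect of over 65% in size; a mitochondrial uncoupler was the plate control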
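Readout is PINK1 immunofluorescence, quantified alongside mitochondrial, cell and nuclear markers by laser-scanning microplate cytometry. Cells from a stable line were exposed to compound titrations (5 concentrations) for 24 hours, with CCCP controls.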
Six1-Eya2 blk – qHTS Assay for Inhibitors of the Six1/Eya2 Interaction | AlphaScreen GST-Six1/His-Eya2 binding, biochemical; active compounds read low; control for the full effect not named in the record | activity change, % (concentration not given with the values) | 0.56% of 360,000 active | AID 651725, 2012; in the data active = activity change below about -65%; inconclusive = about -30% to -65%; inactive = above about -30%; further: on the % scale 0 is the no-effect control and ±100 the full control effect
Target sequence (O00167 whole entry, looked up): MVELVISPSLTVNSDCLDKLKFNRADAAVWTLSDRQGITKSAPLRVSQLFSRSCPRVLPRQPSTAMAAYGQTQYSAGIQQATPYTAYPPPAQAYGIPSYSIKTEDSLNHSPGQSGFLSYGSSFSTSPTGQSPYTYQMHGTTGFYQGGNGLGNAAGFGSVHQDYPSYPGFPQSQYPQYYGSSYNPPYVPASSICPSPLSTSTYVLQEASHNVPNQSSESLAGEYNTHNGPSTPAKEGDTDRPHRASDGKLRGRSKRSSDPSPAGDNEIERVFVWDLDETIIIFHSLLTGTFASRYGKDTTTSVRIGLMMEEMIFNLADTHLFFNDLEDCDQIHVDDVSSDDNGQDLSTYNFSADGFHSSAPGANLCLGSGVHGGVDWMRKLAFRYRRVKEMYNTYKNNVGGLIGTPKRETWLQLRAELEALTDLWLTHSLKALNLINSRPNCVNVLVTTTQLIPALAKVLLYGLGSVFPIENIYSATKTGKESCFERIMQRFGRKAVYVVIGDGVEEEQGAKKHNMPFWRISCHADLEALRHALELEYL
Target sequence (Q15475 whole entry, looked up): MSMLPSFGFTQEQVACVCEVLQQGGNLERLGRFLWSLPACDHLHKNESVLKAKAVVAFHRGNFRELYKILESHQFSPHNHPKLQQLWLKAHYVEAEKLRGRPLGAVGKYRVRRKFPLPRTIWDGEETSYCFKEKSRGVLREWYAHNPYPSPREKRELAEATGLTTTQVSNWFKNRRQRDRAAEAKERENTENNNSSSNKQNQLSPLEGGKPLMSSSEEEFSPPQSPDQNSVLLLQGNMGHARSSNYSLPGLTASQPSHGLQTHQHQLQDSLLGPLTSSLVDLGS
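AlphaScreen with GST-Six1 and His-Eya2 (5X mix: 250 nM and 500 nM), glutathione donor and nickel acceptor beads; buffer 50 mM Tris pH 8.0, 300 mM NaCl, 1 mM TCEP; 1 h at 37 C in the dark.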
D2 PAM – Beta-Arrestin HTS for Positive Allosteric Modulators of the Human D2 Dopamine Receptor: Potentiators; D(2) dopamine receptor (Homo sapiens), P14416; DiscoveRx D2 beta-arrestin cells, luminescence, 90 min; 100% = 57 uM dopamine signal; potentiation, % (concentration not given with the values); 0.23% of 360,000 active; AID 624464, 2012; active = potentiation of 50% or more; inconclusive = 30% to 50%; inactive = 30% or less;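 further: compound concentration not given in the record; tested on top of an EC20 dose of dopamine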
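PathHunter D2 cells, attached overnight at 37 deg C, received compound in DMSO plus dopamine at EC20 (50 nM final) for 90 min at 37 deg C. Beta-arrestin recruitment was read as luminescence after 1 h with detection reagent at ambient temperature.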
Active calls of the source: *; ? = inconclusive; . = no result given; & = joins results of further samples; [ ] = dose if it differs, or a comment.

| compound | CtBP-E1A inh | D2 ag | TRPML1 ag | PINK1 modulator | Six1-Eya2 blk | D2 PAM |
| --- | --- | --- | --- | --- | --- | --- |
| CCCCOc1ccc(C(O)C(CN2CCOCC2)c2ccccc2)cc1 (configuration not stated) | -1 | -0.2 | 0.7 | 4.2% | 3 | -9 |
| CCC(=O)Nc1ccccc1N1CCN(S(C)(=O)=O)CC1 | 1 | 1.8 | 0.3 | 0.4% | 4 | -6 |
| O=C(Nc1nnc(C2CCCCC2)s1)C1CC(=O)N(c2ccccc2)C1 (configuration not stated) | -3 | -9.9 | -0.8 | -0.7% | 15 | -2 |
| CNC(=O)c1cc(C(=O)c2ccc(Cl)cc2)c[nH]1 | 7 | -0.4 | -0.4 | -1.2% | 9 | -10 |
| COc1ccccc1NS(=O)(=O)c1cc(C(=O)Nc2ccc(S(=O)(=O)Nc3onc(C)c3C)cc2)ccc1C | 0 | -2.3 | 0.2 | 2.3% | 40 | 1 |
| COC(=O)C1=C(C)N(c2ccc(OC)c(OC)c2)C(=O)/C1=C\c1cccs1 | -1 | -8.6 | -0.3 | 7.5% | -5 | -4 |
| Cc1ccc2c(CN3CCN(S(=O)(=O)c4ccc5c(c4)OCCO5)CC3)cc(=O)oc2c1C | -3 | -4.2 | 0.6 | -0.5% | 0 | -1 |
| O=C(CC1S/C(=N/N=C/c2cccs2)NC1=O)Nc1ccc(Cl)cc1 (configuration not stated) | -1 | -3.4 | 2.3 | 13% | -8 | 4 |
| CC(C)(C)c1ccc(C(=O)NNC(=O)c2cccc(-n3cnnn3)c2)cc1 | 9 | -0.1 | 0.7 | 0.0% | 11 | 3 |
| CCCCn1nc2cc(C(=O)NCCc3ccc(C)cc3)ccc2c1OCC | 4 | -1.7 | 0.7 | -0.4% | 5 | -4 |
| Cc1nc(SCC(=O)Nc2c(C)n(C)n(-c3ccccc3)c2=O)nc(C)c1C | 2 | 1.2 | -0.6 | 1.1% | 2 | -22 |
| Cc1ccc(-c2cc(C(=O)N3CCCC3)no2)cc1 | 12 | 4.0 | 2.7 | 1.5%[38.3 µM] | 7 | 2 |
| COC(=O)Cn1c(C(=O)N(C)C)cc2c1C[C@H]1CN(C(=O)c3ccccc3)[C@@](Cc3ccc(F)cc3)(C(=O)OC)[C@@H]21 | 7 | . | 0.5 | 0.6% | -9 | . |
| CC(CNc1ccc(Cl)cc1)(CNc1ccc(Cl)cc1)[N+](=O)[O-] | -3 | 3.1 | -0.7 | 8.6% | -13 | -9 |
| CCOC(=O)CC(=O)Nc1nc2ccccc2s1 | 6 | -3.1 | 1.5 | 0.8% | 2 | -24 |
| COc1ccc(C(=O)OCC(=O)Nc2cccc(C(C)=O)c2)c(OC)c1OC | -1 | 2.3 | -0.2 | 4.7% | 2 | -1 |
| O=C(c1ccc(CNc2c(NC3CCCCC3)c(=O)c2=O)cc1)N1CCc2ccccc21 | -1 | 1.7 | -0.5 | 4.5% | -7 | -5 |
| CC(=O)N1CCc2cc(S(=O)(=O)NCCN3CCC(C)CC3)ccc21 | -2 | -3.8 | -0.2 | 1.2% | -1 | -28 |
| COc1ccccc1NC(=O)C(C)OC(=O)Cc1n[nH]c(=O)c2ccccc12 (configuration not stated) | -18 | -3.2 | -0.3 | -0.9% | 14 | -4 |
| Cc1cccc(C(=O)O[C@H]2[C@H](Cc3ccccc3)NS(=O)(=O)[C@H]3CC4C=C[C@]23O4)c1 | 34 | -3.1 | -0.6&0.9 | -0.1% | 16 | -1 |

3 of the entries above in order of their number in PINK1 modulator, low to high:
compound	PINK1 modulator
CCCCn1nc2cc(C(=O)NCCc3ccc(C)cc3)ccc2c1OCC	-0.4%
CC(C)(C)c1ccc(C(=O)NNC(=O)c2cccc(-n3cnnn3)c2)cc1	0.0%
COC(=O)C1=C(C)N(c2ccc(OC)c(OC)c2)C(=O)/C1=C\c1cccs1	7.5%

The list continues:
| compound | CtBP-E1A inh | D2 ag | TRPML1 ag | PINK1 modulator | Six1-Eya2 blk | D2 PAM |
| --- | --- | --- | --- | --- | --- | --- |
| CCOC(=O)c1ccccc1NC(=O)c1ccccc1NS(C)(=O)=O | 0 | -2.8 | 0.3 | -0.3% | 5 | 3 |
| CC1CCC2(CC1)NC(=O)N(Cc1nc(-c3ccccc3)no1)C2=O (configuration not stated) | 10 | -2.4 | -0.1 | 5.9% | 1 | -12 |
| Oc1ccc(Br)cc1-c1ccnn1-c1ccccc1 | -6 | 1.3 | -0.1 | 1.4% | -1 | 2 |
| O=C1Cc2ccccc2C(=O)N1CCc1ccccc1 | -6 | 9.8 | 0.2 | -0.3% | 6 | -3 |
| CCOC(=O)C(CC)Sc1ccc2nnc(CCNS(=O)(=O)c3ccccc3)n2n1 (configuration not stated) | 5 | 2.8 | -0.6 | -1.7% | 0 | -5 |
| Cc1[nH]n(C)c(=O)c1C(=O)c1c(-c2ccccc2Cl)noc1C | -1 | 0.0 | 1.4 | 11% | -6 | 0 |
| CCN(CC(=O)NCc1cccs1)C(=O)/C=C/c1ccc(F)cc1 | 0 | -1.1 | -1.1 | 0.5% | 3 | 11 |
| Cn1c(-n2c(CCCN3C(=O)c4ccccc4C3=O)nc3ccccc3c2=O)nc2ccccc21 | 2 | -1.1 | 0.8 | 0.3% | -5 | -3 |
| CC(C)CNC(=O)C1(N2C(=O)c3ccccc3C2=O)CCCC1 | 4 | -1.5 | -0.1 | 0.6% | -2 | -17 |
| Cc1ccc(OCCN2C(=O)NC3(CCc4ccccc4C3)C2=O)cc1 (configuration not stated) | -13 | -4.7 | 2.3 | -0.5% | 12 | -2 |
| OC(COCC1COc2ccccc2O1)CN1CCc2ccccc2C1 (configuration not stated) | 3 | -2.6&-5.2 | -0.8 | 0.3% | -3 | -36 |
| Cc1cc(-n2c(C)cc(C(=O)CN3C(=O)C(=O)N(C)C3=O)c2C)no1 | . | 3.2 | -0.4 | 2.5% | 4 | -1 |
| CN(C)CCNc1cnn(-c2ccccc2)c(=O)c1Cl | . | -3.2 | 3.8 | -1.5% | -25 | 9 |
| O=C(Nc1ncccn1)C1=C(O)c2ccccc2S(=O)(=O)N1Cc1ccccc1 | -3 | 0.0 | 0.2 | -2.8% | -7 | -1 |
| CCN(C[C@H]1N[C@@](CC)(C(=O)OC)[C@H]2C(=O)N(Cc3ccccc3)C(=O)[C@@H]12)C(=O)c1ccc(F)cc1 | 6 | 12 | 3.8 | -0.3% | 7 | 14 |
| C=C(C)c1cccc(C(C)(C)NC(=O)N2CCN(C/C=C/c3ccccc3)CC2)c1 | -6 | -4.2 | -0.2 | 17% | -9 | -22 |
| CC1CN(C(=O)c2ccccc2NS(=O)(=O)c2ccc(Cl)cc2)CC(C)O1 (configuration not stated) | 8 | 1.0 | -0.3 | -2.7% | 6 | -9 |
| CC1CCCCN1CCNC(=O)CC1Oc2ccccc2NC1=O (configuration not stated) | 4 | -3.7 | -0.2 | -0.9% | -1 | -11 |
| O=C(CSc1nc(N2CCCCC2)nc(N2CCCCC2)n1)N1CCN(c2ccccc2)CC1 | -21 | -6.2 | -0.1 | 2.1% | -27 | -5 |
| Clc1ccc(-c2nc(/C=N/N3CCOCC3)c3ccccn23)cc1 | -20 | 0.4 | -0.1 | 0.2% | -17 | -22 |

Limited to TRPML1 ag and D2 PAM, for some of the entries so far:
canonical_smiles	TRPML1 ag	D2 PAM
Oc1ccc(Br)cc1-c1ccnn1-c1ccccc1	-0.1	2
CC1CCCCN1CCNC(=O)CC1Oc2ccccc2NC1=O (configuration not stated)	-0.2	-11
CCN(CC(=O)NCc1cccs1)C(=O)/C=C/c1ccc(F)cc1	-1.1	11

The results go on.
smiles | CtBP-E1A inh | D2 ag | TRPML1 ag | PINK1 modulator | Six1-Eya2 blk | D2 PAM
CC1SCCN1S(=O)(=O)c1ccc2ccccc2c1 (configuration not stated) | 7 | -2.4 | 0.5 | 2.7% | 11 | -6
C[C@H](OC(=O)c1[nH]cnc1C(=O)N1CCN(C(=O)OC(C)(C)C)CC1)c1ccccc1 | -1 | -0.8 | -0.6 | 1.3% | 10 | -48
CCCc1nnc(NC(=O)CCC(=O)NCc2ccccc2OC)s1 | 3 | -1.0 | -0.7 | -1.6%[38.3 µM] | 2 | -5
O=C(Nc1nc2ccccc2[nH]1)c1ccccc1F | 28 | -4.0 | -0.3 | 7.9% | 16 | -17
CCC(CC)C(=O)NCc1cccnc1 | 0 | -4.6 | -0.7 | 0.3% | -8 | 0
CCC(CC)C(=O)NCCNC(=O)C(CC)CC | 0 | -2.0 | -0.9 | -1.2% | 2 | -7
CCOc1cc(/C=C(\C#N)C(N)=O)ccc1OS(=O)(=O)c1ccccc1 | 5 | -2.4 | -0.2 | 2.0% | 0 | -12
O=C(/C=C/c1ccco1)Nc1ccc2nn(-c3ccccc3)nc2c1 | 2 | -0.2 | 5.5 | ? | -10 | -6
COCCCn1c(C(=O)NC2CCCCC2)cc2c(=O)n3cccc(C)c3nc21 | 1 | -2.3 | -0.3 | 2.0% | -12 | -4
COc1ccc(C(=O)Nc2ccc(NC(C)=O)cc2)cc1S(=O)(=O)N1CCCC1 | . | -4.6 | -1.0 | 2.5% | -2 | -12
Cc1cccc(OCCOCCSc2ncccn2)c1 | 6 | -1.0 | 2.1 | 1.7% | 24 | 5
O=S(=O)(NCc1cccs1)c1ccccc1Cl | 11 | 1.6 | 0.4 | 1.6% | 7 | -6
COc1ccc(S(=O)(=O)N2CCC(C(=O)N3CCN(C)CC3)CC2)cc1OC | 3 | -2.2 | 0.1 | 2.3% | -1 | 0
COc1ccc(S(=O)(=O)N(C)C)cc1NC(=O)CSc1nncs1 | -1 | -2.7 | -1.5 | 0.6% | -16 | -33
O=C(COC(=O)Cc1cccc(C(F)(F)F)c1)NC1CCS(=O)(=O)C1 (configuration not stated) | 1 | -6.0 | 0.7 | -3.1% | 5 | 2
Cc1c(C(=O)N2CCCCCC2)c(S(=O)(=O)Nc2ccc(F)cc2)c(C)n1C | 1 | -2.9 | 0.0 | -0.2% | -2 | -5
Cc1c(C(=O)NCc2cccnc2)oc2ccc(S(=O)(=O)N3CCCCCC3)cc12 | 5 | 1.5 | -0.5 | -0.2% | -1 | -8

Single entries from the results shown.
For D2 PAM, CC1SCCN1S(=O)(=O)c1ccc2ccccc2c1 (configuration not stated) is listed with -6
For TRPML1 ag, O=S(=O)(NCc1cccs1)c1ccccc1Cl is listed with 0.4

Source: PubChem BioAssay
